NPYLR7 agonist – activates Aedes aegypti NPYLR7 receptor. HEK293T NPYLR7/Galpha15, GCaMP6s calcium fluorescence. activation, % at 10 µM. 270,000 compounds, 0.15% hits. AID 1259423; in the data active = activation above about 40%;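 also: 0% = vehicle and 100% = reference agonist at the receptor; some compounds past the cut are filed as inactive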
NPYLR7 agonist max-min – further read-out of NPYLR7 agonist, marked with its call; activation, %; measured here: Max-Min RFU normalised activation; some inactives read as strong as hits;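 span of the calcium signal over five minutes; 0% = vehicle and 100% = native peptide agonist; compound fluorescence can raise it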
* = called active by the depositor; & = joins results of further samples. An excerpt, so the mix of outcomes need not match the whole.

1) Cc1cccc(N=Nc2c(O)n(Cc3ccc(Br)cc3)c3ccccc23)c1
2) COc1ccc(C2=Nc3ncnn3C(c3cccc(Oc4ccccc4)c3)C2)cc1 (configuration not stated)
3) CCc1nc(C)nc(N2CCN(C(=O)C3CC3)CC2)c1Cc1ccccc1F
4) COC(=O)c1ccc(NC(=O)c2cc(=O)c(OC)cn2C)cc1
5) CC(NC(=O)CCN(C)Cc1cccc(O)c1)c1ccccc1 (configuration not stated)
6) CCC(C)C(NC(=O)c1ccc([N+](=O)[O-])cc1Cl)C(=O)Nc1nnc(-c2cccc(OC)c2)s1 (configuration not stated)
7) Nc1nc(N2CCN(Cc3ccccc3)CC2)nc(NCc2ccco2)c1[N+](=O)[O-]
8) CN(C)S(=O)(=O)NCc1nnnn1C1CCCCC1
assay / entry,1,2,3,4,5,6,7,8
NPYLR7 agonist,-0.9,6.1,-1.8,3.1,-4.6,13.8,6.9,0.3
NPYLR7 agonist max-min,-5.2,2.8,7.9,0.2,-5.9,18.3,6.3,1.0

9) Cc1cnccc1N1CCCN(c2cc(N(C)C)ncn2)CC1
10) Cc1ccc(C)c(NC(=O)CSc2ccc3nnc(-c4ccncc4)n3n2)c1
11) Cn1cc(Cn2cnc(-c3ccccc3)c2-c2nc3ccccc3n2C)cn1
12) COc1ccc(C(N)=O)cc1NCc1cc(-c2ccccc2)no1
13) CCCCn1cc(S(=O)(=O)c2ccc(F)cc2)c(=O)c2cc(CC)ccc21
14) CCN(C(=O)Nc1c[nH]c2ccccc12)c1ccccc1C
15) CC(C)Cc1cc(C(=O)NC2CN(C)S(=O)(=O)c3ccsc32)on1 (configuration not stated)
16) CCOc1ccccc1N1CCN(C(=O)c2cccs2)C(C)C1=O (configuration not stated)
assay / entry,9,10,11,12,13,14,15,16
NPYLR7 agonist,-1.1,-2.6,-2.1,-1.1,-6.1,-3.0,-0.4&2.4,12.5
NPYLR7 agonist max-min,-3.4,-3.5,-11.7,-0.9,-12.1,-7.4,-3.6&1.3,17.9

17) CCOC(=O)[C@H]1C[C@@H]2O[C@H]1[C@H]1CN(Cc3cccc(OC)n3)C[C@H]1[C@@H]2O
18) COCC(O)CN(C)C(=O)/C=C(/C)c1cccc(F)c1 (configuration not stated)
19) CC1(C(=O)NS(=O)(=O)c2cccc(Cl)c2)CCN1C(=O)CCc1ccc(Cl)cc1Cl (configuration not stated)
20) COc1ccc(-c2onc(C)c2C(=O)NCc2cnc(C)cn2)cc1
21) CCn1c(CC2CCNCC2)nn(Cc2coc(C)n2)c1=O
22) Cc1ccc2oc(-c3cc(NC(=O)c4ccc(Cl)cc4Cl)ccc3O)nc2c1
23) COc1cccc(N2CCN(CC(=O)Nc3sc4c(c3C(N)=O)CCCC4)CC2)c1
24) O=C(CN1CCOCC1)NCc1cnn2ccccc12
assay / entry,17,18,19,20,21,22,23,24
NPYLR7 agonist,2.4,3.1,4.5,-8.0,-1.3,10.2,-4.3,-2.6
NPYLR7 agonist max-min,12.3,0.8,0.7,-1.6,-6.1,9.3,-9.0,-5.1

25) CCc1nc2n(n1)C(=O)C(C(c1cccc(F)c1)N1CCN(c3ccc(OC)cc3)CC1)S2 (configuration not stated)
26) O=C(Nc1ccc(OCC(F)(F)F)cc1)C1=CN2CCS(=O)(=O)N=C2C=C1
27) CCOCCOC(=O)C1=C(C)NC2=C(C(=O)C(C(=O)OC)C(C)C2)C1c1ccc(C)o1 (configuration not stated)
28) Cc1ccc(CN(Cc2ccc3c(c2)OCO3)C(=O)CN(CCN2CCOCC2)C(=O)Nc2ccc([N+](=O)[O-])cc2)o1
29) CC(=O)N1CC[C@@]2(C1)[C@@H](O)CN(c1ccccc1)S2(=O)=O
30) COCCc1noc(C2CCCCN2C(=O)c2ccc(F)c(C)c2)n1 (configuration not stated)
31) COc1ccc(CCC(=O)N2CCC(O)(C(=O)O)CC2)cc1
32) COc1ccccc1OC1CN(C(=O)c2cnn(Cc3ccccc3)c2)C1
assay / entry,25,26,27,28,29,30,31,32
NPYLR7 agonist,-3.1,15.9,-3.5,-5.8,-0.2,1.9,9.8,0.4
NPYLR7 agonist max-min,-5.2,11.6,-3.1,-5.9,8.0,0.9,8.9,-0.1

33) CCOc1ccccc1NC(=O)N1CCN(c2nc(-c3cccc(F)c3)nc(C)c2Cc2ccccc2)CC1
34) Cc1ccc(NC(=O)C(C)N2C(=O)CSC2c2ccc(C)cc2)cc1 (configuration not stated)
35) CC(C)c1nccc(CN(C)C(C)c2cccs2)n1 (configuration not stated)
36) CCOC(=O)c1cnc(-c2ccncc2)nc1NCc1ccncc1
37) Cc1nnc(SCCn2c(N3CCc4ccccc4C3)nc3c2c(=O)n(C)c(=O)n3C)s1
38) Cc1nc(CNC(=O)CCc2c(C)nc(=O)[nH]c2C)cs1
39) COc1ccc(C=NC2=NN(c3ccccc3)CC2)cc1
40) CC(=O)N(c1nnc(SC2Cc3ccccc3C2)s1)C1CC1
assay / entry,33,34,35,36,37,38,39,40
NPYLR7 agonist,-0.5,26.7,2.2,21.7,12.1,4.8,2.0,0.3
NPYLR7 agonist max-min,4.7,23.5,0.4,15.6,6.1,-6.0,-6.7,2.3

41) CC(C)Cn1c(NC2=NCCC2)cc(=O)n(C)c1=O
42) COc1cccc(Cc2nsc(N(C)CC(=O)NCCC(c3ccccc3)c3ccccc3)n2)c1
43) CCC(=O)Nc1cccc(C(=O)Nc2cc(C#N)ccc2SC)c1
44) Cc1cc(C)n(CCNC(=O)CCc2c[nH]c3ccccc23)c(=O)n1
45) O=C1CN(C(=O)c2cccs2)CC(O)CN1Cc1cccs1 (configuration not stated)
46) Cc1ccc(-c2csc(NC(=O)C3=NNC(=O)CC3)n2)s1
47) COCCN1C(=O)N(Cc2ccccc2)C2(CCN(Cc3ccco3)CC2)C1=O
48) CC1ON=C(c2ccc[nH]2)N(C)C1=O (configuration not stated)
assay / entry,41,42,43,44,45,46,47,48
NPYLR7 agonist,2.6,14.1,17.1,-2.3,0.2,-1.7,6.3,8.2
NPYLR7 agonist max-min,1.4,14.4,8.6,3.4,10.0,-0.8,-4.8,1.0

49) CC(=O)Nc1ccc(CN2CCC2(C)C(=O)NC2CCN(Cc3ccccc3)CC2)cc1 (configuration not stated)
50) O=Cc1ccc(/C=C2/NC(=S)NC2=O)cc1
51) Cc1ccc(-c2ccnc(-c3ccccc3C(=O)O)n2)c(C)n1
52) Cc1cc(C)n(C(=O)COc2ccc(Cl)cc2Cl)n1
53) O=C(CNc1ccccc1Cl)N1CCCN(c2nccs2)CC1
54) Cc1ccc(CCC(=O)NCC(=O)N2CC(C(N)=O)CCC2C)cc1 (configuration not stated)
55) O=C(CNC(=O)C1CC1(c1ccccc1)c1ccccc1)NCCC1=CCCCC1 (configuration not stated)
56) CCCc1cc(=O)[nH]c(SCC(=O)N2CCC(C(=O)Nc3ccccc3)CC2)n1
assay / entry,49,50,51,52,53,54,55,56
NPYLR7 agonist,7.4,-8.9,9.8,-12.2,-0.4&0.0,-4.9,30.0,-7.6
NPYLR7 agonist max-min,0.8,-9.7,1.3,-11.4,-2.2&-6.1,6.5,24.9,-3.9

57) O=C(NCCn1ncc2c(N3CCCCCC3)ncnc21)c1cc2ccccc2o1
58) CN1CCC2(CCCN(C3CCC4(CCNCC4)CC3)C2)C1 (configuration not stated)
59) COc1ccc(CCNC(=O)c2csc(CSc3nnc(-c4ccncc4)n3-c3ccccc3Cl)n2)cc1OC
60) Cc1ncc(-c2ccc(C(C)N3CCCCC3)cc2)[nH]1 (configuration not stated)
61) Cc1ccc(CN2CCN(Cc3ccc(C)s3)CC2CCO)cc1 (configuration not stated)
62) O=C(c1nn(-c2ccc(Cl)cc2)c(=O)n(Cc2ccccc2F)c1=O)N1CCOCC1
63) Cc1ccc(-n2nnnc2NCC2CCN(CC(F)(F)F)C2)cc1 (configuration not stated)
64) CC(=O)c1ccc(NC(=O)N2CCCN(S(C)(=O)=O)CC2)cc1
assay / entry,57,58,59,60,61,62,63,64
NPYLR7 agonist,-1.1,2.1,-2.2,4.7,2.4,17.3,0.5,-4.0
NPYLR7 agonist max-min,-1.1,1.7,3.7,1.3,-2.4,13.1,0.5,-3.0

65) CCCN1C(=O)NC2NC(=O)N(CCC)C21 (configuration not stated)
66) CCC(=O)Nc1c(-c2cc(F)ccc2F)nc2ccccn12
67) COc1ccc(N=Cc2nc(-c3cccc4ccccc34)oc2O)cc1
68) COc1cc(C)c(NC(C)C(=O)c2ccc(NC(C)=O)cc2)cc1OC (configuration not stated)
69) O=C(Cn1nc(-c2cccs2)c2sc(N3CCCC3)nc2c1=O)OCc1ccccc1
70) Cc1ccc(/C=C2\SC(=S)N(CCC(=O)O)C2=O)cc1
71) O=C1CC2CS(=O)(=O)CC2N1c1ccc(Oc2ccccc2)cc1 (configuration not stated)
72) CCSc1nnc(-c2ccccc2)c2sc(C)nc12
assay / entry,65,66,67,68,69,70,71,72
NPYLR7 agonist,3.0,-9.0,-2.6,-1.9,0.8,-3.4,0.2,8.2
NPYLR7 agonist max-min,2.1,-3.4,-6.5,-2.8,-5.5,-7.9,7.6,7.3

Full records from above. Order of screens: NPYLR7 agonist | NPYLR7 agonist max-min
CCSc1nnc(-c2ccccc2)c2sc(C)nc12 as listed: 8.2 | 7.3
COc1ccc(N=Cc2nc(-c3cccc4ccccc34)oc2O)cc1 as listed: -2.6 | -6.5
O=C(Cn1nc(-c2cccs2)c2sc(N3CCCC3)nc2c1=O)OCc1ccccc1 as listed: 0.8 | -5.5
CCCN1C(=O)NC2NC(=O)N(CCC)C21 (configuration not stated) as listed: 3.0 | 2.1
COc1cc(C)c(NC(C)C(=O)c2ccc(NC(C)=O)cc2)cc1OC (configuration not stated) as listed: -1.9 | -2.8

Next section:
73) COCC(=O)N(Cc1cc(N)ccc1N(C)C)C1CCCCC1
74) Cc1ccccc1S(=O)(=O)NC(=O)C1(C)CCN1C(=O)CCc1ccccc1 (configuration not stated)
75) CCOC(=O)CCc1c(C)nc2ncnn2c1N1CCN(S(=O)(=O)c2cc(C)c(Cl)cc2C)CC1
76) N#CCSc1nnc(-c2ccc(F)cc2)n1CC1CCCO1 (configuration not stated)
77) O=C(Nc1ccccc1Br)N1CCN(c2nc(Cc3ccccc3)nc3sc4c(c23)CCCC4)CC1
78) COc1ccc(CCC(=O)OCC(=O)Nc2ccon2)cc1OC
79) Fc1ccc(-c2cc3[nH]cnc(=S)c3s2)cc1
80) O=C(c1cc(C(F)(F)F)cc(C(F)(F)F)c1)N1CCN(c2nc(Cc3ccccc3)ns2)CC1
assay / entry,73,74,75,76,77,78,79,80
NPYLR7 agonist,0.2,0.8,30.8,-0.7,-6.3,9.0,5.0,-3.7
NPYLR7 agonist max-min,-3.1,-0.7,15.2,-1.8,11.0,8.3,15.8,-3.1

81) COC(=O)c1cc2n(n1)CCN(C(=O)[C@@]13CC[C@@](C)(OC1=O)C3(C)C)C2
82) COc1ccc(CNC(C)C)cc1OS(=O)(=O)c1ccc(F)cc1
83) O=C(c1ccccc1F)N(Cc1c(-c2ccccc2)noc1N1CCSCC1)C1CC1
84) CC(CCc1ccccc1)NC(=O)c1cn[nH]n1 (configuration not stated)
85) COc1ccc(N2CCN(CCn3c(C)c(C)n4c5c(=O)n(C)c(=O)n(C)c5nc34)CC2)cc1
86) Cc1ccc(C(C)N(C)C(=O)Nc2cc(C(C)C)[nH]n2)cc1 (configuration not stated)
87) COC(=O)Cn1cnc2c(-c3cccc(F)c3)csc2c1=O
88) O=C1NC(c2ccco2)=NOC1c1ccccc1 (configuration not stated)
assay / entry,81,82,83,84,85,86,87,88
NPYLR7 agonist,-2.1,1.0,-6.1,4.1,-2.2,-3.6&2.0,0.7,2.8
NPYLR7 agonist max-min,-3.5,9.8,11.0,-2.4,0.8,-5.3&3.7,-4.5,-1.4

89) O=C(CCc1ccco1)NCC1(c2ccccc2Cl)CCOCC1
90) COc1ccc(CN2CN=C(NS(C)(=O)=O)NC2)cc1
91) c1ccc(-c2nccn2CCN2CCCCC2)c(Cn2cccn2)c1
92) Cn1c(C(=O)NCc2cccs2)cc2c(=O)n3ccccc3nc21
93) CCOC(=O)C1=C(O)/C(=C\N2CCCCC2)N=C1C
94) COc1ccc(F)c(CN2CCCC3(CCN(C(=O)C4=CCCC4)C3)C2)c1 (configuration not stated)
95) CCOC(=O)c1[nH]c2ccccc2c1NC(=O)Cc1ccccc1
96) CCn1nc(CC(C)C)cc1C(=O)N1C[C@H]2CC=C(C)C[C@H]2C1
97) CC1CCc2sc(C(=O)OC(C)C(=O)NCc3ccc4c(c3)OCO4)cc2C1 (configuration not stated)
assay / entry,89,90,91,92,93,94,95,96,97
NPYLR7 agonist,2.3,-7.8,5.4,-0.9,3.5,0.3,0.6,0.2,-5.9
NPYLR7 agonist max-min,1.3,-16.2,-1.7,-4.3,2.4,-8.0,22.1,-2.7,-6.9

High-throughput results as filed in PubChem BioAssay.
